# LANA-H2A inh – blocks KSHV LANA binding to histone H2A/H2B. Q9QR71. cell-free LANA-H2A/H2B peptide, fluorescence polarization. inhibition, % (test concentration not listed). 320,000 tested, 0.6% active. AID 2629; in the data active means inhibition mostly above about 10%, no sharp cut-off; inactive means mostly below about 6.7%;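 further: stock transfer was 7.5 nL into about 10 µL; 0% = median of vehicle wells and 100% = median of positive control wells; one replicate is shown; the record names a cut of 25% in any replicate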
# Beta cell apopt – blocks beta cell apoptosis | 300,000 tested, 0.8% active | AID 435005 | protection from apoptosis, % (test concentration not listed) | INS-1E cytokine-induced death, ATP luminescence, 48 h; percent of positive-control rescue, neutral wells zero;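 active means all replicates at 75% or more, or half of them and the mean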;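 further: 0% = cytokine-treated negative control wells and 100% = positive control rescue; higher means more ATP so stronger rescue from cytokine killing; wells of about 40 µL received 100 nL stock; the first replicate is given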
# Calb FLC – C. albicans growth modulation with fluconazole | AID 1979 | C. albicans CaCi-2 (fluconazole-resistant clinical isolate) + fluconazole, Alamar Blue growth, 48 h | 300,000 tested, 0.57% active | growth inhibition, % (concentration not given with the values);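 active means most replicates above 75%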;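 further: all wells also contain fluconazole at 8 µg/ml as a sub-toxic cotreatment; 0% = median of DMSO wells and 100% = median of geldanamycin control wells; wells of about 8 µL received 7.5 nL stock; the first replicate is given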
# ALR H2O2 inh – inhibitors of human sulfhydryl oxidase ALR; P55789; purified ALR, DTT oxidation, H2O2 HRP-luminol luminescence; inhibition, % (concentration not given with the values); 290,000 tested, 3.8% active; AID 485317;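 active means mean and each replicate at 75% or more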;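 further: stock transfer was 7.5 nL into about 7.5 µL; 0% = neutral wells and 100% = wells with inactivated enzyme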
# Target sequence (P55789 whole entry, looked up): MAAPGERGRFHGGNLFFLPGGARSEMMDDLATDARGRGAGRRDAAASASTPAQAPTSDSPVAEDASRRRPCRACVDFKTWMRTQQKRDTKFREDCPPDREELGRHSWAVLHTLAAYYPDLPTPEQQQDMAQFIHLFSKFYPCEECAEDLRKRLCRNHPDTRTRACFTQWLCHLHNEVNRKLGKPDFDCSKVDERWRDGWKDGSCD
# B2AR ag – agonists of human beta-2 adrenergic receptor inducing internalization; P07550; Am2.2-beta2AR cells, FAP receptor internalization, flow cytometry; reference of the scale not given here; response, % (test concentration not listed); 340,000 tested, 0.43% active;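 active means response above a set limit, near 3 SD of response in nonfluorescent compounds, cut at about 42% in these data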;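 further: stock transfer was 100 nL into about 11 µL; a reference agonist was the positive control; negative values mostly stem from fluorescent compounds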
# Target sequence (P07550 whole entry, looked up): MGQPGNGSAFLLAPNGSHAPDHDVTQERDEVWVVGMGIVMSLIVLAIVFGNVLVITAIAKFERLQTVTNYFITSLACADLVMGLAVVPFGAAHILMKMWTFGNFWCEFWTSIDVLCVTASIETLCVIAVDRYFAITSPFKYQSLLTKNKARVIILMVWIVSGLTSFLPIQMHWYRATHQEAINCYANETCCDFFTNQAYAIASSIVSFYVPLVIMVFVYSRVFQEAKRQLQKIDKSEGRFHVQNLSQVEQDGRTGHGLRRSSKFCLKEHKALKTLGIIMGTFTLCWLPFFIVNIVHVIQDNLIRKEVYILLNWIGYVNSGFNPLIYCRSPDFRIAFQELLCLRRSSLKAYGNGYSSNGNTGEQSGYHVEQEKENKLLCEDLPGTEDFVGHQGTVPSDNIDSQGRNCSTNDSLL
# Bfl-1 A1 inh – inhibitors of the anti-apoptotic protein A1, read as caspase activation | MEF A1-2A-BIM cells, Caspase-Glo 3/7 luminescence, 3 h; percent of clofoctol response, vehicle zero | 330,000 tested, 0.066% active | AID 2462 | caspase activation, % (concentration not given with the values);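 active means over half of replicate activation scores above 10%, or exactly half above 10 with the replicate mean above 10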;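 further: wells of about 30 µL received 50 nL stock; many hits fall short of the cut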
# T cruzi inh – blocks replication of Trypanosoma cruzi. 300,000 tested, 1.4% active. T. cruzi beta-gal in NIH3T3, luminescence, 90 h. inhibition, % (no concentration beside the values);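 active means mean inhibition across valid replicates above about 55%, limit read from the data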;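 further: signal also drops with host cell toxicity which is not excluded here; 0% = plate median of DMSO wells and 100% = zero luminescence signal; higher percent means less beta-gal luminescence so fewer parasites; stock transfer was 50 nL into about 50 µL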
# Ecoli rRNA inh – inhibitors of bacterial rRNA selective over humanized ribosomes. E. coli WT GFP vs humanized-ribosome RFP mutants, fluorescence, 24 h; stronger effect = lower value; DMSO median 0, no signal -100. GFP signal change (wild-type ribosome), % (no concentration beside the values). 350,000 tested, 1.6% active;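 active means significant combined selectivity score with lowered wild-type GFP, culture density cut under 30%, mutant RFP and density less affected; inactive means any of these conditions unmet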; further: one replicate is shown; some compounds called inactive have numbers as strong as hits
# Ecoli rRNA inh OD600 – also measured in Ecoli rRNA inh; calls as there; OD600 change, %; measured here: OD600 growth;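 optical density of the mix in the first replicate; 0 = DMSO median and -100 = no signal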
# Ecoli rRNA inh RFP – recorded beside Ecoli rRNA inh, whose call it bears; RFP signal change, %; measured here: RFP humanized mutant strains;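 first replicate; 0 = DMSO median and -100 = no signal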
# The depositor's hits bear a star; . = no result given; & = joins results of further samples. Not all compounds are listed; the hit share may differ from the screen's.
SMILES,LANA-H2A inh,Beta cell apopt,Calb FLC,ALR H2O2 inh,B2AR ag,Bfl-1 A1 inh,T cruzi inh,Ecoli rRNA inh,Ecoli rRNA inh OD600,Ecoli rRNA inh RFP
O=c1oc(CCCO)cc2ccccc12,3.1,0,.,2,1,-0.2,.,4,12,-0.9
COC(=O)c1ccc(N2CCOCC2)c(NC(=O)c2ccco2)c1,2.9,-5,13,3,-3,-0.9,7,10,11,5.7
O=C(NCc1ccc(F)cc1)Nc1cccc([N+](=O)[O-])c1,-1.5,1,-13,-2,-16,-0.5,-12,-5,-8,-0.7
CCCCC(=O)Nc1ccc(NC(=O)c2ccc3c(c2)OCO3)cc1OC,0.9,17,-1,-6,8,.,-28,.,.,.
CN(Cc1ccccn1)Cc1nc(-c2ccc(Cl)cc2)no1,-7.0,1,4,-15,5,-0.2,-1,6,-4,-9.9
CSC1=N/C(=C\c2ccc(Cl)cc2)C(=O)N1N(C)C,-2.5,4,1,-2,-2,0.3,-14,14,6,-2.0
Cc1cccc(NC(=O)C2CC(=O)N(Cc3ccccc3)C2)n1 (stereo not drawn),-3.2,-3,-5,-13,3,-0.4,-13,7,13,0.9
CCOC(=O)c1csc(NC(=O)CSc2nnnn2-c2ccc(OC)c(OC)c2)n1,0.8,-1,-6,-3,-3,-0.3,2,.,.,.
O=C1N(Cc2cccnc2)C[C@@H]2C[C@@H](c3cccc(C(F)(F)F)c3)N3CCC[C@@]123,-4.3,1,-5,-8,3,-0.3,10,11,-6,-1.0
Oc1ccccc1CNCC12CC3CC(CC(C3)C1)C2,-1.3,-3,-24,23,7,-0.6,-3,2,-24,1.9
NS(=O)(=O)c1ccc(CCNC(=O)c2ccc(Cl)c(S(=O)(=O)NCc3ccco3)c2)cc1,1.5,-4,.,-1,-1,-0.6,.,0,4,-0.1
CC(C)n1cc(CN2CCCC(CNS(=O)(=O)c3cccc4cccnc34)C2)cn1 (stereo not drawn),3.5,.,0,-3,-1,-0.5,64*,4,17,0.3
CCOc1ccc(Cn2nnc(C(=O)NCc3ccccc3)c2N)cc1,2.0,-3,0,-4,-2,-0.4,1,-1,24,-2.2
NC(=O)NC(=O)CSc1cccc(C(F)(F)F)c1,5.3,-3,17,-2,-3,1.0,-21,.,.,.
O=C(NCc1cccnc1)c1ccccc1-c1ccccc1,-3.1,-3,-5,-3,-7,0.2,-24,8,6,0.2
CCn1c(SCc2cccc(F)c2)nnc1-c1cccnc1,-2.4,-6,3,-3,-8,0.8,-12,-1,1,-1.6
COc1ccc(-c2ccc(-c3noc(-c4cccc(OC)c4)n3)c(OC)n2)cc1,-0.7,0,-8,-8,4,0.6,-13,.,.,.
Cc1ccc(NC(=O)C(Nc2cccc(C)c2)c2ccccc2)cc1 (stereo not drawn),-1.5,-2,4,-3,8,0.4,10,.,.,.
c1ccc(C2CC(c3ccccc3)n3c(nc4ccccc43)N2)cc1 (stereo not drawn),0.3,4,-10,2,-3,-0.8,-1,5,6,10
C[C@H](CO)N1C[C@H](C)[C@@H](CN(C)S(=O)(=O)c2ccccc2)Oc2c(NC(=O)CCC(F)(F)F)cccc2C1=O,2.3,-1,.,1,-9,0.6,.,2,8,-4.9
Cc1cc(F)ccc1S(=O)(=O)N1CCCOC1CNC(=O)C(=O)NCc1ccncc1 (stereo not drawn),-1.3,-9,2,2,-1,0.0,10,2,5,0.4
O=c1[nH]cnc2c([N+](=O)[O-])cccc12,-0.9,-1,0,-14,-11,-0.2,-1,.,.,.
COc1cc(C(=O)Nc2nncs2)cc(OC)c1OC,4.5,-6,-7,.,1,0.2,-8,.,.,.
CCc1ccc(CCC(=O)Nc2ccc(C)c(C)c2)o1,0.8,-2,2,11,3,-0.3,-6,.,.,.
Cc1cccc(-n2ncc3c(=O)[nH]c(SCC(=O)Nc4cc(C)on4)nc32)c1,-5.1,1,.,.,-7,0.3,.,6,9,-1.7
CCOC(=O)CN(C(=O)CSc1nnc(-c2ccncc2)n1CCCOC)c1ccccc1,-3.6,-12,6,-19,-7,0.0,4,.,.,.
CCOC(=O)CSc1cc(C)c(C#N)c2nc3ccccc3n12,-0.3,-5,14,99*,10,0.5,2,13,5,3.4
COc1cc(OC)c2c(C)cc(=O)oc2c1C(CCN1CCOCC1)c1ccc(N(C)C)cc1 (stereo not drawn),-2.7,-2,-14,.,2,0.5,17,9,-6,5.4
CCOC(=O)C1CCCN(S(=O)(=O)c2ccc(OC)cc2)C1 (stereo not drawn),-0.9,-6,-8,-7,5,0.1,-8,.,.,.
COc1ccc(-c2csc3ncnc(N4CCN(c5cccc(C)c5C)CC4)c23)cc1,4.9,-5,4,3,-1,0.4,17,2,5,-2.5
CC(Oc1ccc(F)cc1)C(=O)Nc1cc(Cl)ccc1-n1cncn1 (stereo not drawn),0.5,5,-1,2,-2,0.4,-6,-9,-20,4.5
COc1ccc(CCNC(=O)c2cc(C3CC3)nc3c2cnn3C(C)C)cc1OC,1.7,-4,.,-2,7,-0.6,.,-23,-29,-2.1
COc1cccc(OC)c1-c1nn2c(-c3ccco3)nnc2s1,1.3,-4,34,-4,2,0.4,10,.,.,.
Cc1nn(C(C)C(=O)NCC2CCCO2)c(=O)c2cc3occc3n12 (stereo not drawn),2.7,-15,2,-1,-6,-0.2,-9,.,.,.
c1ccc2sc(C3CCN(Cc4nnnn4Cc4ccc5c(c4)OCO5)CC3)nc2c1,-0.3,3,-16,-1,-1,0.3,36,.,.,.
O=C(CSc1nnc(C2CCCCC2)n1Cc1ccccc1)NCc1ccco1,4.3,.,-12,8,6,-0.2,-2,.,.,.
CC(C)(C)C(=O)Nc1ncc(C(F)(F)F)cc1Cl,-1.1,-3,1,.,0,0.0,-4,.,.,.
COc1ccc(NC(=O)CNC(c2ccccc2)c2ccccc2)cc1,-6.6,-1,3,.,0,0.8,8,-30,-24,-1.9
C/C=C(\C)c1nnc(NC(=O)OCC)s1,2.7,-5,4,1,-7,-1.1,2,.,.,.
COc1ccc(C(=O)OCC(=O)NC2CC2)cc1[N+](=O)[O-],1.8,-3,1,-3,6,-0.3,-11,4,3,-0.9
COC(=O)CN1C(=O)C(C)(C)Oc2ccc(C(=O)NC3CC3)cc21,2.2,1,0,-3,-7,0.5,0,.,.,.
CN(CC(=O)NCc1ccccc1)S(=O)(=O)c1cnc[nH]1,3.4,-6,-1,-21,5,-0.3,-7,9,11,-1.3
COc1ccc(-c2c[n+](CC(=O)N3c4ccccc4Sc4ccccc43)c3n2CCC3)cc1,-4.3,21,62,-10,4,-0.8,57*,-45*,-29*,-14*
CCc1ccc(OCC(O)CN2CCN(c3ccccc3)CC2)cc1 (stereo not drawn),1.2,.,-17,49,-6&-2,-0.3,8,-5,-34,1.8
COc1ccc(N2CCN(C(=O)c3c(-c4ccccc4)noc3C)CC2)cc1,-1.4,.,9,-146,5,0.3,1,3,-4,6.5
N#CNC(=Nc1ccc(F)cc1)SCc1ccccc1,3.3,9,7,.,4,-0.4,-4,10,16,0.8
CC(C)(C)c1ccc(-c2cn(-c3ccc(Br)cc3)c3[n+]2CCCS3)cc1,.,.,102*,.,13,.,39,-50*,-39*,-9.1*
COC(=O)c1sc(NC(=S)NC(=O)c2cccc(Br)c2)nc1C,1.9,2,1,12,-11,-0.9,-5,-2,14,-0.4
CC(=O)c1cc(-c2ccccc2)n(CCC(=O)NC2CCCCCCC2)c1C,4.1,7,0,-28,-14,-0.3,-17,.,.,.
COc1cc(OC)c(OC)cc1NC(=O)CC1COc2ccccc2O1 (stereo not drawn),-1.0,2,-3,-1,3,0.2,2,.,.,.
O=C(Nc1cccc(Cl)c1)N1CCCC1,0.4,3,-18,.,-1,0.5,-7,.,.,.
CC(C)(C)c1ccc(C(=O)N2CCN(CCNC(=O)C(=O)NCc3ccc(Cl)cc3)CC2)cc1,2.0,5,.,-3,10,-0.7,66*,.,.,.
CCCOc1ccc(C2=NNC(=O)CC2)cc1,3.8,-7,15,-4,-4,-0.5,-2,10,10,-0.7
O=C(CN1C(=O)c2ccccc2S1(=O)=O)Nc1ccc(S(=O)(=O)Nc2ncccn2)cc1,.,.,25,.,0,.,3,9,13,-2.9
O=[N+]([O-])c1ccc(C2CN=C(Nc3ccccc3)S2)cc1 (stereo not drawn),-6.4,-8,-31,-21,14,0.9,-14,0,-4,-3.6
CC(C)CCC(CC(C)O)C(=O)NNC(=S)Nc1ccccc1 (stereo not drawn),3.1,-3,-15,27,-8,0.8,-25,3,0,4.4
O=C1CC(c2ccc(S(=O)(=O)Nc3cc(C(F)(F)F)cc(C(F)(F)F)c3)cc2)CN1 (stereo not drawn),0.8,3,16,2,7,-2.5,-12,.,.,.
Cn1c(=O)oc2cc(S(=O)(=O)NCCC(=O)NCCc3ccccc3)ccc21,-6.2,-3,-29,-2,-18,0.8,-13,-3,-8,-2.5
N#C/C(=C/c1ccc(OCc2ccc(C(=O)O)cc2)cc1)C(=O)Nc1ccccc1,-3.5,-10,-4,13,-3,0.6,-6,-5,-3,2.2
COc1ccc(-c2nnc(NC(=O)c3ccco3)s2)cc1,2.3,5,7,.,-7,0.0,-6,2,4,0.9
# Later entries
SMILES,LANA-H2A inh,Beta cell apopt,Calb FLC,ALR H2O2 inh,B2AR ag,Bfl-1 A1 inh,T cruzi inh,Ecoli rRNA inh,Ecoli rRNA inh OD600,Ecoli rRNA inh RFP
CNS(=O)(=O)c1cccc(C(=O)OCC(=O)NC2CCCC(C)C2C)c1 (stereo not drawn),-4.5,3,.,15,8,-0.4,.,1,4,-2.5
Cc1ccc(S(C)(=O)=NS(=O)(=O)c2cccc3nsnc23)cc1 (stereo not drawn),-0.3,1,8,-6,-7,0.3,1,24,8,4.1
Cc1cc(NC(=O)CCC(=O)N(Cc2ccco2)C2(C(=O)NC3CCCCC3)CCCCC2)no1,3.5,0,23,-4,-9,0.4,18,-3,2,-1.2
C=CCc1cccc(/C=N/NC(=O)CNc2ccccc2OC)c1O,-3.3,-3,93*,-7,10,0.4,65*,-29,-25,-2.4
Cc1cc(N=Cc2c(O)n(-c3cccc(C(F)(F)F)c3)c(=O)c3ccccc23)no1,0.6,2,2,1,-10,0.2,4,.,.,.
c1csc(-n2nc3ccccc3n2)c1,-1.7,-17,-13,-10,-3,-0.8,-6,.,.,.
O=C(c1cc(COc2c(F)cccc2F)on1)N1CCc2ccccc2C1,-1.7,-13,6,-1,3,-0.6,2,-23*,-14*,3.5*
Clc1cccc(-c2nc(NCCN3CCOCC3)c3ccccc3n2)c1,-1.3,-8,63,-3,0,-0.4,20,-61,-77,-21
COCCn1c(SCc2ccc(F)cc2)nc2ccccc2c1=O,1.6,-1,24,-8,2,1.9,34,-26,-25,-9.0
CN(C)CCNC(=O)C(=O)NCC1OCCN1S(=O)(=O)c1ccc2c(c1)OCCO2 (stereo not drawn),3.4,-3,-5,-7,-5,0.2,16,-1,-10,-1.5

# Compound activity as filed in PubChem.
